Screens from PubChem BioAssay.
Ran FRET = RanGTP/importin-beta interaction disruptors – biochemical, CFP-Ran/YFP-importin-beta FRET, RCC1, cell-free, primary screen (AID 434961). inhibition, %. 7,700 compounds, 0.2% hits. CFP-Ran/YFP-importin-beta FRET, cell-free; stronger effect = higher value;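 active = more than half of the replicate wells above 15% inhibition; inconclusive = exactly half above it; inactive = fewer than half above it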;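 note: 0% = DMSO wells and 100% inhibition = RanGDP control wells on each plate; stock of unstated strength diluted about 400-fold; mean of two wells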
Active calls of the source: *; ? = inconclusive.

SMILES: CC(C)NC(=O)N(C)C[C@@H]1OCCCC[C@H](C)Oc2ccc(NC(=O)C3CCCCC3)cc2C(=O)N([C@@H](C)CO)C[C@@H]1C
- Ran FRET: -4.5
SMILES: COc1ccc(S(=O)(=O)N(C)C[C@@H]2Oc3ccc(NC(=O)Nc4cccc5ccccc45)cc3CC(=O)N([C@H](C)CO)C[C@@H]2C)cc1
- Ran FRET: 8.6
SMILES: C[C@H]1CN([C@@H](C)CO)C(=O)c2cccc(NC(=O)Nc3cccc4ccccc34)c2O[C@H]1CN(C)S(=O)(=O)c1cccs1
- Ran FRET: -1.4
SMILES: COC(=O)N(C)C[C@H]1OCc2cnnn2CCCC(=O)N([C@H](C)CO)C[C@H]1C
- Ran FRET: 2.3
SMILES: C[C@@H]1CN([C@@H](C)CO)C(=O)Cc2cc(N(C)C)ccc2O[C@@H]1CN(C)C(=O)Nc1ccc2c(c1)OCO2
- Ran FRET: 4.5
SMILES: Cc1cc(C(=O)Nc2cccc3c2O[C@@H](CN(C)S(=O)(=O)c2cccs2)[C@@H](C)CN([C@H](C)CO)C3=O)n(C)n1
- Ran FRET: ?
SMILES: C[C@H](CO)N1C[C@H](C)[C@H](CN(C)C(=O)Nc2ccccc2)Oc2ccc(NC(=O)Nc3ccccc3)cc2C1=O
- Ran FRET: ?
SMILES: C[C@@H]1CN([C@@H](C)CO)C(=O)Cc2cc(NS(=O)(=O)c3ccc(Cl)cc3)ccc2O[C@H]1CN(C)C(=O)NC1CCCCC1
- Ran FRET: 3.4
SMILES: C[C@H](CO)N1C[C@H](C)[C@@H](CN(C)C)OCCCC[C@H](C)Oc2ccc(NC(=O)CCCN(C)C)cc2C1=O
- Ran FRET: ?
SMILES: C[C@H](CO)N1C[C@H](C)[C@H](CN(C)S(=O)(=O)c2cn(C)cn2)OCCCC[C@H](C)Oc2ccc(NC(=O)CCCN(C)C)cc2C1=O
- Ran FRET: 2.0
SMILES: C[C@@H]1CN([C@H](C)CO)C(=O)Cc2cc(NC(=O)Nc3ccccc3)ccc2O[C@@H]1CN(C)C(=O)Nc1ccccc1
- Ran FRET: -2.3
SMILES: COc1ccc(CN(C)C[C@H]2Oc3ccc(NS(=O)(=O)c4ccc(OC)cc4)cc3CC(=O)N([C@H](C)CO)C[C@@H]2C)cc1
- Ran FRET: 2.3
SMILES: C[C@H](CO)N1C[C@H](C)[C@@H](CN(C)C(=O)NC2CCCCC2)Oc2ccc(NC(=O)Cc3ccccc3)cc2C1=O
- Ran FRET: -1.3
SMILES: C[C@@H]1CN([C@H](C)CO)C(=O)Cc2cc(NC(=O)C3CC3)ccc2O[C@H]1CN(C)Cc1ccncc1
- Ran FRET: -0.6
SMILES: C[C@H]1CN([C@@H](C)CO)C(=O)c2cccc(NS(C)(=O)=O)c2O[C@H]1CN(C)Cc1ccc2c(c1)OCO2
- Ran FRET: ?
SMILES: CC(C)NC(=O)Nc1ccc2c(c1)C(=O)N([C@H](C)CO)C[C@H](C)[C@@H](CN(C)S(=O)(=O)c1cccs1)OCCCC[C@H](C)O2
- Ran FRET: 1.4
SMILES: C[C@@H]1CN([C@@H](C)CO)C(=O)c2cc(NS(=O)(=O)c3cn(C)cn3)ccc2O[C@@H](C)CCCCO[C@H]1CN(C)C(=O)c1ccccc1
- Ran FRET: ?
SMILES: COc1ccc(NC(=O)Nc2cccc3c2O[C@@H](CN(C)S(=O)(=O)c2cccs2)[C@H](C)CN([C@@H](C)CO)C3=O)cc1
- Ran FRET: 3.4
SMILES: C[C@@H]1CN([C@H](C)CO)C(=O)c2cccc(NC(=O)NC3CCCCC3)c2O[C@H]1CN(C)C
- Ran FRET: -0.4
SMILES: COc1ccc(NC(=O)Nc2ccc3c(c2)CC(=O)N([C@@H](C)CO)C[C@H](C)[C@@H](CN(C)C)O3)cc1
- Ran FRET: -0.4
SMILES: C[C@@H]1CN([C@H](C)CO)C(=O)c2cc(NS(=O)(=O)c3cccs3)ccc2O[C@@H](C)CCCCO[C@@H]1CN(C)C
- Ran FRET: 2.1
SMILES: C[C@H](CO)N1C[C@H](C)[C@H](CN(C)CC2CC2)Oc2c(NS(=O)(=O)c3ccc(Cl)cc3)cccc2C1=O
- Ran FRET: ?
SMILES: C[C@H](CO)N1C[C@H](C)[C@@H](CN(C)CC2CC2)Oc2c(NS(=O)(=O)c3cn(C)cn3)cccc2C1=O
- Ran FRET: ?
SMILES: Cc1noc(C)c1NC(=O)N(C)C[C@@H]1Oc2ccc(NC(=O)NC3CCCCC3)cc2C(=O)N([C@H](C)CO)C[C@H]1C
- Ran FRET: 6.4
SMILES: C[C@H](CO)N1C[C@H](C)[C@@H](CN(C)C(=O)c2ccncc2)OCCCC[C@H](C)Oc2ccc(N(C)C)cc2C1=O
- Ran FRET: 0.3

The last seven entries of the section before open the next one.
SMILES: C[C@@H]1CN([C@H](C)CO)C(=O)c2cccc(NC(=O)NC3CCCCC3)c2O[C@H]1CN(C)C
- Ran FRET: -0.4
SMILES: COc1ccc(NC(=O)Nc2ccc3c(c2)CC(=O)N([C@@H](C)CO)C[C@H](C)[C@@H](CN(C)C)O3)cc1
- Ran FRET: -0.4
SMILES: C[C@@H]1CN([C@H](C)CO)C(=O)c2cc(NS(=O)(=O)c3cccs3)ccc2O[C@@H](C)CCCCO[C@@H]1CN(C)C
- Ran FRET: 2.1
SMILES: C[C@H](CO)N1C[C@H](C)[C@H](CN(C)CC2CC2)Oc2c(NS(=O)(=O)c3ccc(Cl)cc3)cccc2C1=O
- Ran FRET: ?
SMILES: C[C@H](CO)N1C[C@H](C)[C@@H](CN(C)CC2CC2)Oc2c(NS(=O)(=O)c3cn(C)cn3)cccc2C1=O
- Ran FRET: ?
SMILES: Cc1noc(C)c1NC(=O)N(C)C[C@@H]1Oc2ccc(NC(=O)NC3CCCCC3)cc2C(=O)N([C@H](C)CO)C[C@H]1C
- Ran FRET: 6.4
SMILES: C[C@H](CO)N1C[C@H](C)[C@@H](CN(C)C(=O)c2ccncc2)OCCCC[C@H](C)Oc2ccc(N(C)C)cc2C1=O
- Ran FRET: 0.3
SMILES: C[C@@H]1CN([C@H](C)CO)C(=O)Cc2cc(NC(=O)CCC(F)(F)F)ccc2O[C@H]1CN(C)C(=O)Nc1cccc2ccccc12
- Ran FRET: -1.4
SMILES: C[C@H](CO)N1C[C@H](C)[C@@H](CN(C)Cc2ccc(C(=O)O)cc2)Oc2ccc(NC(=O)NC3CCCCC3)cc2C1=O
- Ran FRET: -0.1
SMILES: CNC[C@H]1OCCCC[C@H](C)Oc2ccc(NC(=O)Nc3ccccc3)cc2C(=O)N([C@@H](C)CO)C[C@@H]1C
- Ran FRET: 0.9
SMILES: C[C@@H]1CN([C@@H](C)CO)C(=O)Cc2cc(NC(=O)NC3CCCCC3)ccc2O[C@H]1CN(C)S(=O)(=O)c1ccccc1
- Ran FRET: 3.5
SMILES: C[C@@H]1CCCCO[C@H](CN(C)Cc2ccccc2)[C@H](C)CN([C@@H](C)CO)C(=O)c2cc(NS(=O)(=O)c3cccs3)ccc2O1
- Ran FRET: 0.4
SMILES: CNC[C@@H]1Oc2ccc(NC(=O)C3CC3)cc2CC(=O)N([C@H](C)CO)C[C@@H]1C
- Ran FRET: 3.2
SMILES: C[C@@H]1CN([C@H](C)CO)C(=O)c2cc(NC(=O)Cc3ccccc3)ccc2O[C@@H](C)CCCCO[C@@H]1CN(C)S(=O)(=O)c1cccs1
- Ran FRET: 1.0
SMILES: C[C@@H]1CCCCO[C@@H](CN(C)C(=O)c2ccncc2)[C@@H](C)CN([C@H](C)CO)C(=O)c2cc(NS(=O)(=O)c3ccccc3)ccc2O1
- Ran FRET: -2.7
SMILES: C[C@@H]1CN([C@H](C)CO)C(=O)Cc2cc(NC(=O)Nc3ccccc3)ccc2O[C@@H]1CN(C)C(=O)Nc1ccc(C(F)(F)F)cc1
- Ran FRET: -1.1

The list is partial; the hit share may differ from the screen's.
